2A Renilla: FMDV 2A StopGo reporter, Renilla signal | HEK cells with a luciferase reporter of 2A StopGo recoding | Potency, µM (doses to about 57.5 µM), inactives show at the highest dose signal change, negative = less light | 0.32% of 120,000 active | AID 1745857; active means well fitted falling curve with a large enough effect; inconclusive means small, poorly fitted or top-dose-only effect; inactive means no such curve, though single readings can be large or run the other way; also: nearly all actives have a fitted effect of over 55% in size; overnight with compound
2A firefly: lowers the firefly signal of an FMDV 2A StopGo reporter; 0.23% of 120,000 active; HEK cells with a luciferase reporter of 2A StopGo recoding; Potency, µM (top dose mostly 57.5 µM), inactives show at the top dose signal change, negative = less light; active = well fitted falling curve with a large enough effect; inconclusive = small, poorly fitted or top-dose-only effect; inactive = no such curve, though single readings can be large or run the other way; also: nearly all actives have a fitted effect of over 60% in size; overnight with compound
* marks the source's active call; other numbers are inactive results; ? = inconclusive; & = joins results of further samples; [ ] = another dose, or the depositor's remark. % is scaled to controls: 0 for no effect and ±100 for the full control effect; potency is read from the fitted curve at half-maximal effect. Only part of the results is shown; the hit share may differ from the screen's.

Sequence of screens – 2A firefly	2A Renilla
- Cc1cc(Nc2ccc(Br)cc2)nc(-c2ccccc2O)n1
    39%[activator]	43%[activator]
- CCOC(=O)c1ccc(NC(=O)C(C)N(c2ccc(OCC)cc2)S(C)(=O)=O)cc1 (stereo not given)
    -12%	6%
- CC1CCCC(C)N1NC(=S)NCc1ccccc1 (stereo not given)
    5%	34%[activator]
- Cc1ncc(-c2ccc(S(=O)(=O)N3CCN(c4cccc(Cl)c4)CC3)cc2)o1
    -4%	-9%
- O=C(/C=C/c1cccc(C(F)(F)F)c1)c1cccc(N2CCCC2=O)c1
    ?	?
- Cc1cc(/C=C(\C#N)c2nc3ccccc3s2)cc2c1OC(C)C2 (stereo not given)
    79%[activator]	15%
- Cc1cc(SCC(=O)Nc2ccc(F)c(F)c2F)nc2ccccc12
    -5%	-6%
- N#C/C(=C\c1ccco1)C(=O)c1ccccc1
    5%	-3%[1.06 µM]
- Cc1ccc(NC(=O)Cn2c(=O)nc(-c3ccccc3)c3ccccc32)cc1F
    16%	-4%
- Cc1ccc(NC(=O)Cn2c(=O)ccc3cc(S(=O)(=O)N4CCCC4)ccc32)cc1C
    ?	-15%
- O=C(NCc1cccc(F)c1)c1nc(-c2cccc3[nH]ccc23)no1
    113%[activator]	253%[activator]
- COc1ccccc1N1CCN(CC(O)COc2cc(OC)c(OC)c(OC)c2)CC1 (stereo not given)
    -4%[11.5 µM]	-1%
- c1ccc(-c2ccc(Oc3nc(-c4ccccc4)cs3)cc2)cc1
    0%	-2%
- CCCOc1cccc(C(=O)Nc2cc(-c3ccccc3)no2)c1
    128%[activator]	21%
- COc1ccccc1CNC(=O)CCn1ccc2ccccc21
    15%	9%
- Cc1ccc(NC(=O)CCn2c(=O)c3cccn3c3ccccc32)c(Cl)c1
    -11%	22%
- CCOC(=O)c1sc2ncn(CC(=O)Nc3ccc(F)cc3F)c(=O)c2c1C
    -16%	-6%
- CC1CCCCN1CCCNC(=O)c1[nH]c2ccccc2c1Sc1ccc(Cl)cc1 (stereo not given)
    -21%	-14%
- CCCc1cc(=O)[nH]c(SCC(=O)NC2CCCC2)n1
    4%	1%
- Cc1ccc(C2=NO[C@@](CC(=O)O)(C(=O)Nc3ccc4c(c3)OCCO4)C2)cc1
    78%[activator]	-5%

Filtered by structure: the entries above with a cyano group
Sequence of screens – 2A firefly	2A Renilla
- Cc1cc(/C=C(\C#N)c2nc3ccccc3s2)cc2c1OC(C)C2 (stereo not given)
    79%[activator]	15%
- N#C/C(=C\c1ccco1)C(=O)c1ccccc1
    5%	-3%[1.06 µM]

Next part.
Sequence of screens – 2A firefly	2A Renilla
- Cn1c(CCNC(=O)c2ccco2)nc2ccccc21
    6%	-2%
- CC(C)(C)c1ccc(C(C)(C)C)c2c1OC(c1ccccc1)O2
    7%	9%
- CCCN(Cc1ccc(OC)cc1)Cc1cc(=O)n2[nH]c(-c3cccc(C)c3)cc2n1
    ?	?
- COc1cccc(CNC(=O)NNc2nc(C)cc(=O)[nH]2)c1
    2%	-1%
- COCCN(Cc1cc(OC)c(OC)c(OC)c1)Cc1cc(=O)n2ccc(C)cc2n1
    13%	5%
- CC(Sc1nnc(-c2ccco2)o1)C(=O)Nc1ccc2c(c1)OCO2 (stereo not given)
    33%[activator]	0%
- Fc1ccc(NC(=S)NCCSc2ccc(Cl)cc2)cc1
    18%	181%[activator]
- Cc1ccccc1NC(=O)c1cccc2c(=O)c(C)c(-c3ccccc3)oc12
    9%	7%
- CN(C(=O)CSc1nc2ccc(NC(=O)CCc3ccccc3)cc2s1)c1ccccc1
    ?	?
- CCN(CC)S(=O)(=O)c1nnc(NC(=O)COc2ccccc2Cl)s1
    -11%	-1%
- Cc1ccc(-c2cc(C(=O)O)c3cccc(C)c3n2)s1
    0%	9%
- Cc1cc(C)n2nc(SCC(=O)c3cc(C)n(C4CCS(=O)(=O)C4)c3C)nc2n1 (stereo not given)
    14%	-5%
- CCc1ccc(-c2cc3c(=O)[nH]nc(SCC(=O)NCCC(C)C)n3n2)cc1
    182%[activator]	-2%
- Cc1ccc(CNC(=O)c2ccc(CS(=O)(=O)c3ccccc3C)o2)cc1
    -8%	11%
- COc1ccc(NC(=O)COC(=O)c2cc(=O)c3ccccc3o2)c(OC)c1
    -12%	-13%
- Cc1cc(NC(=O)Cc2ccccc2)cc(-c2nc3ccccc3o2)c1O
    1%	-6%
- Cc1ccc(CNC(=O)Nc2ccccc2Cl)cc1
    0%	7%
- Cc1ccc(C)c(N2CCN(C(=O)C3CCCN(Cc4nc(-c5cccc(Cl)c5)oc4C)C3)CC2)c1 (stereo not given)
    -22%	-15%
- CC(C)CN(CC(C)C)C(=O)COC(=O)c1cc(=O)[nH]c2ccccc12
    27%	23%
- COc1ccc(CCNC(=O)c2sc(NC(C)C)nc2C)cc1
    13%	-15%

Arranged by SMILES length (ascending): part of the list above
Sequence of screens – 2A firefly	2A Renilla
- CC(C)(C)c1ccc(C(C)(C)C)c2c1OC(c1ccccc1)O2
    7%	9%
- Cc1cc(NC(=O)Cc2ccccc2)cc(-c2nc3ccccc3o2)c1O
    1%	-6%
- CCCN(Cc1ccc(OC)cc1)Cc1cc(=O)n2[nH]c(-c3cccc(C)c3)cc2n1
    ?	?

Next part.
Sequence of screens – 2A firefly	2A Renilla
- Cc1cc(C)cc(N/C(N)=N/c2nc(C)cc(C)n2)c1
    -5%	7%
- Cc1c(-c2ccccc2)oc2c(C(=O)OCC(=O)NC3CCCC3)cccc2c1=O
    -9%	-10%
- S=C(NCCc1ccccc1)Nc1ccc(Cl)cc1NC(=S)NCCc1ccccc1
    0%	213%[activator]
- CC(C)CN(CCNC(=O)c1cc(-c2cccs2)nc2ccccc12)CC(C)C
    -15%	-9%
- Cc1cccc(C(CC(=O)Nc2ccc(-c3ccno3)cc2)n2cccc2)c1 (stereo not given)
    10%	12%
- O=C(Nc1cc(=O)[nH]c2nc(C(F)(F)F)nn12)c1ccccc1F
    2%	-6%
- CCOC(=O)c1c(C)oc2nc(C)nc(NCCCN3CCN(c4ccc(F)cc4)CC3)c12
    -10%	-10%
- COc1cc(OC)cc(C(=O)NCCc2csc(-c3cccc(C)c3)n2)c1
    ?	-6%
- CCc1c(C)sc2c1CCN(Cc1cccc(OC)c1)C2c1ccccc1 (stereo not given)
    ?	?
- O=C(c1ccccc1)[C@@H]1[C@@H](C(=O)c2ccco2)[C@@]2(C(=O)Nc3ccccc32)[C@H]2c3ccccc3C=CN12
    26%	134%[activator]
- CCOC(=O)c1ccc2c(c1)N(CC(=O)Nc1cc(F)ccc1F)C(=O)c1ccccc1S2
    -2%	2%
- Fc1ccc(-c2nnn(Cc3cc(Cl)c4c(c3)OCCCO4)n2)cc1
    40%[activator]	-28%
- CCOc1ccc(CCNC(=O)c2cnc3c(-c4ccc(F)cc4)c(C)nn3c2C)cc1
    0%	9%
- COCCNC(=O)c1cc(Sc2ccc(F)cc2F)nc2ccccc12
    -11%	6%
- COc1ccccc1C(=O)Sc1ccc(Cl)cc1
    0%	-5%
- CCc1ccccc1NC(=O)CC(c1ccc(F)cc1)N1Cc2ccccc2C1=O (stereo not given)
    -2%	206%[activator]
- Cc1ccccc1NC(=O)Nc1cc2c(cc1Oc1ccccc1)n(C)c(=O)n2C
    60%[activator]	103%[activator]
- Cc1cccc(Cn2cccc2CNC(=O)NC23CC4CC(CC(C4)C2)C3)c1
    ?	-24%
- COC1CCN(S(=O)(=O)c2cc(C(=O)O)ccc2Cl)CC1
    -16%	-16%
- Cc1ccc(C(=O)COC(=O)c2ccccc2-c2ccccc2)cc1C
    3%	-3%

In a second layout: 20 of the compounds above
| structure | 2A firefly | 2A Renilla |
| --- | --- | --- |
| CC(C)CN(CC(C)C)C(=O)COC(=O)c1cc(=O)[nH]c2ccccc12 | 27% | 23% |
| COc1ccc(CCNC(=O)c2sc(NC(C)C)nc2C)cc1 | 13% | -15% |
| Cc1cc(C)cc(N/C(N)=N/c2nc(C)cc(C)n2)c1 | -5% | 7% |
| Cc1c(-c2ccccc2)oc2c(C(=O)OCC(=O)NC3CCCC3)cccc2c1=O | -9% | -10% |
| S=C(NCCc1ccccc1)Nc1ccc(Cl)cc1NC(=S)NCCc1ccccc1 | 0% | 213%[activator] |
| CC(C)CN(CCNC(=O)c1cc(-c2cccs2)nc2ccccc12)CC(C)C | -15% | -9% |
| Cc1cccc(C(CC(=O)Nc2ccc(-c3ccno3)cc2)n2cccc2)c1 (stereo not given) | 10% | 12% |
| O=C(Nc1cc(=O)[nH]c2nc(C(F)(F)F)nn12)c1ccccc1F | 2% | -6% |
| CCOC(=O)c1c(C)oc2nc(C)nc(NCCCN3CCN(c4ccc(F)cc4)CC3)c12 | -10% | -10% |
| COc1cc(OC)cc(C(=O)NCCc2csc(-c3cccc(C)c3)n2)c1 | ? | -6% |
| CCc1c(C)sc2c1CCN(Cc1cccc(OC)c1)C2c1ccccc1 (stereo not given) | ? | ? |
| O=C(c1ccccc1)[C@@H]1[C@@H](C(=O)c2ccco2)[C@@]2(C(=O)Nc3ccccc32)[C@H]2c3ccccc3C=CN12 | 26% | 134%[activator] |
| CCOC(=O)c1ccc2c(c1)N(CC(=O)Nc1cc(F)ccc1F)C(=O)c1ccccc1S2 | -2% | 2% |
| Fc1ccc(-c2nnn(Cc3cc(Cl)c4c(c3)OCCCO4)n2)cc1 | 40%[activator] | -28% |
| CCOc1ccc(CCNC(=O)c2cnc3c(-c4ccc(F)cc4)c(C)nn3c2C)cc1 | 0% | 9% |
| COCCNC(=O)c1cc(Sc2ccc(F)cc2F)nc2ccccc12 | -11% | 6% |
| COc1ccccc1C(=O)Sc1ccc(Cl)cc1 | 0% | -5% |
| CCc1ccccc1NC(=O)CC(c1ccc(F)cc1)N1Cc2ccccc2C1=O (stereo not given) | -2% | 206%[activator] |
| Cc1ccccc1NC(=O)Nc1cc2c(cc1Oc1ccccc1)n(C)c(=O)n2C | 60%[activator] | 103%[activator] |
| Cc1cccc(Cn2cccc2CNC(=O)NC23CC4CC(CC(C4)C2)C3)c1 | ? | -24% |

Going on with the list:
Sequence of screens – 2A firefly	2A Renilla
- O=C(NCC#Cc1ccccc1)N1CCCCCCC1
    39%[activator]	13%
- Cc1ccc(-c2c(NC(=O)C3CC3)nc3ncccn23)cc1
    6%	-1%
- COc1ccc(N2CC(NC(=O)c3ccc(S(=O)(=O)N4CCCCC4)cc3)CC2=O)cc1OC (stereo not given)
    12%	-2%
- O=C(c1cccc(Br)c1)C(Cl)C(=O)c1cccc(Br)c1
    24%	4%
- Cn1ccnc1C(=O)c1cccc(NC(=O)C(=O)N[C@H](CO)Cc2ccccc2)c1
    11%	8%
- CC1Cc2ccccc2N1C(=O)CSc1nc2ccc(NC(=O)COc3ccccc3)cc2s1 (stereo not given)
    -5%	14%
- COc1ccc(C)cc1NS(=O)(=O)c1ccc2c(c1)[C@H]1C=CC[C@H]1[C@@H](c1cccc(Cl)c1)N2
    -17%	2%
- Cc1ccc(NC(=O)C2CCCN(c3ncnc4onc(-c5ccc(F)cc5)c34)C2)c(Cl)c1 (stereo not given)
    10%&-8%	1%&-6%
- COc1cccc(CN2C(=O)N(c3cccc(OC)c3)S(=O)(=O)c3ccccc32)c1
    28%	0%
- CCC(CC)NC(=O)CN(C)CC(=O)Nc1ccc(Cl)c(C(F)(F)F)c1
    ?	?
- Cc1cccc(-n2c(N)cc(=O)nc2SCC(=O)Nc2ccc(F)cc2)c1C
    -17%	-5%
- CCOc1cccc(-c2nc(-c3c[nH]c(C(=O)N4CCCC4)c3)cs2)c1
    183%[activator]	33%[activator]
- COc1cccc(N2CCN(Cc3cc(=O)oc4cc(C)ccc34)CC2)c1
    -22%	-16%
- CC(Sc1nnc2ccccn12)C(=O)N1CCN(Cc2ccccc2)CC1 (stereo not given)
    19%	-2%
- COc1cc(/C=C/c2nc3cc(Cl)ccc3o2)cc(OC)c1OC
    37%[activator]	-6%
- O=C(O)C(c1c[nH]c2cc(Cl)ccc12)N1CCN(c2ccc(F)cc2)CC1 (stereo not given)
    -6%	-4%
- COc1ccc(/C=C/S(=O)(=O)NCCc2ccccc2)c(CNC(=O)OC(C)(C)C)c1
    3%	60%[activator]
- Cc1cc(C)c2c(c1)c(C)cc1nnc(SCC(=O)c3ccc(F)cc3)n12
    -7%	-5%
- CCOC(=O)C1CCCN(C(=O)CCS(=O)(=O)c2cc3c(cc2Cl)NC(=O)CO3)C1 (stereo not given)
    8%	-4%
- COC(=O)CCS(=O)(=O)c1ccc(C)c(C)c1
    0%	13%
- Cc1cccc(-c2nc(SCC(=O)Nc3ccc4c(c3)OCCO4)c(-c3ccccc3)[nH]2)c1
    14%	39%[activator]
- CCN(CC)S(=O)(=O)c1ccc(-c2nc(C#N)c(N(C)Cc3ccccc3)o2)cc1
    -8%	13%
- CN(CC(=O)NC(N)=O)Cc1ccc(C(F)(F)F)cc1
    5%	6%
- COc1ccc(CNC(=O)CN2C(=O)CCn3nc(-c4cn(C)c5ccccc45)cc32)cc1
    9%	3%
- O=C(Nc1cc(Cl)cc(Cl)c1)c1ccc(F)c(S(=O)(=O)NC2CCCCC2)c1
    -4%	104%[activator]
- CC(=O)Nc1cccc(NC(=O)c2c(-c3ccccc3)c(-c3ccccc3)nn(C)c2=O)c1
    -19%	67%[activator]

From PubChem
